# Source: PubChem (National Center for Advancing Translational Sciences (NCATS))
# Menin MLL FP FL = qHTS Assay for Inhibitors Targeting the Menin-MLL Interaction in MLL Related Leukemias: Competition With Fluorescein Labeled MLL-derived Peptide. Fluorescence polarization, fluorescein-MLL peptide displacement from menin. FP activity change, % at 61.4 µM. 290,000 tested, under 10 active; inconclusive = falling polarisation curve, or a change in total fluorescence; inactive = total fluorescence flat and polarisation flat or rising; no compound was filed as active; the % refers to the polarisation; negative = inhibition;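 further: % of control where 0% means no effect; inhibitors lower the polarisation; unlabelled MLL peptide was the positive control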
# PINK1 modulator = A Quantitative High throughput Screen to Identify Chemical Modulators of PINK1 Expression; PINK1 immunofluorescence, high-content cytometry, 24 h; Potency, µM (highest dose often 76.6 µM), for the others: top-dose activation (PINK1 increase), hits mostly activators; 410,000 tested, 0.2% active; AID 624263, 2012; active = well fitted activation curve with a large enough effect; inconclusive = small, poorly fitted or top-dose-only effect; inactive = flat fitted curve, though single readings scatter; cell line not stated here;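 further: potency means the concentration at half of the fitted maximal effect; % of control where 0% means no effect; nearly all actives have a fitted effect of over 65% in size; a mitochondrial uncoupler was the plate control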
#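 PINK1 protein, normally rapidly degraded, was detected by immunofluorescence after 24 hour compound treatment of a stable cell line. Titration data (5 concentrations) came from laser-scanning cytometry, with CCCP-treated wells as controls.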
# TRPV1 potentiator = HTS Assay for Compounds that Act as Potentiators of the Vanilloid Receptor 1; 320,000 tested, 0.02% active; Transient receptor potential cation channel subfamily V member 1 (Homo sapiens), Q8NER1; AID 540277, 2011; potentiation, % at 8.33 µM; TRPV1-expressing cells, Fluo-8 calcium influx, capsaicin EC20 potentiation; host cell line not named in the record; control for the full effect not named in the record; active means potentiation above 80%; inconclusive means 30% to 80%; inactive means below 30%; further: 0% is about no effect
#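 Fluo-8 calcium influx in TRPV1-expressing cells, kinetic read (ex 480/em 520 nm). Compound added and read 3 min for agonist activity, followed by capsaicin at EC20 final and 2 min further read for enhancement.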
# TRPML1 inh = qHTS for Inhibitors of the Human Mucolipin Transient Receptor Potential 1 (TRPML1); Mucolipin-1 (Homo sapiens), Q9GZU1; TRPML1-inducible cells, Ca2+ dye fluorescence, FDSS; stronger effect = lower value; inhibition of EC80 agonist-evoked calcium signal; activity change, negative = inhibition, % (no concentration beside the values); 390,000 tested, 0.02% active; in the data active means activity change below about -50%; inconclusive means about -30% to -50%; inactive means above about -30%;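 further: stimulus is agonist 54-4 at its EC80 concentration; on the % scale 0 is the no-effect control and ±100 the full control effect; compound concentration not given in the record; the text of the record puts the active cut at -80%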
# Target sequence (Q9GZU1 whole entry, looked up): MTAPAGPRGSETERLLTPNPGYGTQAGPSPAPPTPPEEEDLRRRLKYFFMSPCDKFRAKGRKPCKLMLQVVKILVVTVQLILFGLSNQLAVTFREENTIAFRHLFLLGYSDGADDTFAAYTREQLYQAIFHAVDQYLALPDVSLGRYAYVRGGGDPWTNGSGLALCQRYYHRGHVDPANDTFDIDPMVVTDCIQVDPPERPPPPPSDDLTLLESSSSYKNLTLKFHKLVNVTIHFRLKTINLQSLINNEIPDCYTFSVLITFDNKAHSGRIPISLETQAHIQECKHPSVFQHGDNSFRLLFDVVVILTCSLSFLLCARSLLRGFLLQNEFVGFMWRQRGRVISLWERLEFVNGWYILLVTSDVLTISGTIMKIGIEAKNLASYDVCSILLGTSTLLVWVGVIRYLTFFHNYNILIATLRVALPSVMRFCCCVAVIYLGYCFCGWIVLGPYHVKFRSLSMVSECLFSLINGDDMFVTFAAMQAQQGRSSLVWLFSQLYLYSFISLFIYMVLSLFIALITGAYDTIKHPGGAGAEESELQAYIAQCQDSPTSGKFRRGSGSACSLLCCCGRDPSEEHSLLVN
#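 Calcium fluorescence in TRPML1-DL cells induced overnight with Tet: a 110 s read after compound pin addition, then a 110 s antagonist read after challenge with 54-4 at 4 uM final (EC80).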
# ClpP mod = qHTS Assay for Activators of ClpP; purified B. subtilis ClpP, FRET peptide cleavage, 20 min; Potency, µM (top dose mostly 57.5 µM), for the others: at the top dose activity change, negative = active; 340,000 tested, 1.9% active; AID 651965, 2013; active = well fitted falling curve with a large enough effect; inconclusive = small, poorly fitted or top-dose-only effect; inactive = no such curve, though single readings can be large or run the other way; further: potency means the concentration at half of the fitted maximal effect; the source files actives as falling curves though it sought activators and does not explain the sign; nearly all actives have a fitted effect of over 65% in size; many hits overshoot -100%
# Target sequence (P80244 whole entry, looked up): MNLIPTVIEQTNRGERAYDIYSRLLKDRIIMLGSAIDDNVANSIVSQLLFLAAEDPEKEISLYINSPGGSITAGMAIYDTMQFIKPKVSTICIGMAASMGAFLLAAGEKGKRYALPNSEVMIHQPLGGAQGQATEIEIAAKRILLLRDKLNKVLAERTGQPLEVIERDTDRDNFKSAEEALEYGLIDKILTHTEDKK
#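 FRET quenching reversal measured ClpP activation: 10 microg/mL B. subtilis ClpP at pH 8 with the FRET-FV decapeptide, read at 430 nm after 320 nm excitation. The 20-min minus 0-min signal was scaled between DMSO/no-enzyme wells and ADEP (5.8 microM final).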
# TRPML1 ag = qHTS for Agonists of the Human Mucolipin Transient Receptor Potential 1 (TRPML1) | TRPML1-expressing cells, Ca2+ dye fluorescence, FDSS; host cell line not named in the record; reference of the full effect not given here | Mucolipin-1 (Homo sapiens), Q9GZU1 | activation, % (no concentration beside the values) | AID 624414, 2012 | 410,000 tested, 0.12% active; in the data active = activation above about 50%; inconclusive = about 30% to 50%; inactive = below about 30%; further: 0% is about no effect; the text of the record puts the active cut at 80%
#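 Cells: TRPML1-DL, 1X Tet inducer, ~16 h at 37 degrees C/5% CO2. Dye: ABD Ca8 no-wash + quencher, 45-90 min RT. Read: 10 s baseline, compound add, 110 s agonist phase; 54-4 EC80 (4uM final), 110 s antagonist phase.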
# Sfp inh = qHTS Assay for Inhibitors of Bacillus subtilis Sfp phosphopantetheinyl transferase (PPTase). AID 1490, 2009. Biochemical Sfp PPTase activity, qHTS. Potency, µM, inactives show max response, negative = inhibition, actives largely listed as inhibitors. 310,000 tested, 3.5% active; active means well fitted inhibition curve with a large enough effect; inconclusive means small, poorly fitted or top-dose-only effect, or another doubt; inactive means no such curve, though single readings can be large or run the other way;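 further: the enzyme is Sfp with the accession as filed and its product quenches rhodamine fluorescence; potency means the concentration at half of the fitted maximal effect; 0% = enzyme reaction without inhibitor and -100% = no enzyme wells; top concentration of the series not given in the record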
#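 Sfp 15 nM + cpd, 15 min RT; start w/ rhodamine-CoA 5 uM, BHQ-2-YbbR 12.5 uM (final); 50 mM Hepes pH 7.6, 10 mM MgCl2, 0.01% NP-40, 0.01% BSA; read 525/598 nm at 0 and 30 min.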
# The depositor's hits bear a star; ? = inconclusive; · = no result given; [ ] = another dose, or the depositor's remark.
SMILES	Menin MLL FP FL	PINK1 modulator	TRPV1 potentiator	TRPML1 inh	ClpP mod	TRPML1 ag	Sfp inh
Cc1cccc2c1N(CC(=O)OC(C)C)C(=O)C2=O	4.5	3.4%	1.5	-17.8	1.9%	-0.4	-0.7%
COCCn1c(SCc2ccc(C(=O)OC)o2)nc2ccccc2c1=O	7.7	3.9%[38.3 µM]	?	13.3	-3.0%	2.0	?
CCOC(=O)C1(C)CCCN(C(=O)CCc2ccccc2)C1 (configuration not stated)	·	-1.2%	·	-29.4	-1.1%	-0.5	·
CC(Cn1cnc2ccccc21)C(=O)O (configuration not stated)	1.2	1.4%[38.3 µM]	5.0	-19.6	-0.5%	1.2	9.2%
O=C(C1=C(O)C(=O)N(CCN2CCOCC2)C1c1ccco1)c1cc2ccccc2o1 (configuration not stated)	·	-0.8%	28.3	7.7	-2.6%	-0.5	7.6%
Cc1ccccc1-n1nc2c(c1NC(=O)c1cc3ccccc3oc1=O)CS(=O)(=O)C2	2.5	3.5%[38.3 µM]	-14.1	17.9	-3.6%	0.3	5.2%
Cc1ccc(CNC(=O)c2ccc(S(=O)(=O)N3CCCC3)cc2)cc1	·	0.8%	·	-2.1	0.8%	-1.2	·
CC1CC2OC2CC1COC(=O)C1CC2OC2CC1C (configuration not stated)	·	-1.4%	·	-12.1	·	0.3	·
O=C(CCN1C(=O)/C(=C/c2cccs2)SC1=S)Nc1cccc(O)c1	-2.3	-0.6%	-4.2	-1.5	·	0.3	0.6%
CCOc1ccccc1N1CCN(S(=O)(=O)c2ccc(F)c(F)c2)CC1	-1.8	0.1%	-11.2	10.6	-1.7%	0.1	-1.8%
CCOc1ccc(CN(C)C(=O)CNC(=O)Cc2cccc3ccccc23)cc1	-0.5	2.8%	4.4	-1.9	·	0.7	28.7%
CCn1c(O)c(N=NC(=O)CNc2ccc(C)cc2)c2ccccc21	-2.7	-0.4%	-0.3	30.8	·	0.6	9.9%
O=C(COc1ccccc1Br)NC1CCCC1	8.0	2.0%	?	26.4	-8.4%	2.1	1.3%
O=[N+]([O-])c1cccc(-n2nnnc2CN2CCCC2)c1	-1.8	0.8%	-0.9	24.2	0.2%	0.5	9.2%
COc1cccc2cc(C(=O)NC(C)c3ccccc3)c(=O)oc12 (configuration not stated)	0.1	6.4%	-6.6	-6.3	-1.8%	0.2	5.8%
Cc1cccc(OCC(=O)Nc2cc(Cl)ccc2-n2cncn2)c1C	·	10.3%	-10.9	48.9	·	0.9	·
CCOC(=O)C1=NN(C(=O)COc2ccccc2)C(O)(c2ccc(Cl)cc2)C1 (configuration not stated)	5.5	1.1%	3.0	-8.8	·	-0.8	6.3%
Cc1ccc(-c2noc(CCC(=O)N(C)c3ccccc3F)n2)cc1	·	0.6%	·	23.3	-1.2%	-0.1	·
Cc1c(Cl)cnc(NC(=O)CSc2nnc3ccccn23)c1Cl	0.3	1.4%	9.5	15.0	-1.5%	-0.4	0.7%
Cc1c[nH]c2ccccc12	-1.1	0.3%	5.7	41.7	-19.5%	1.5	-1.0%
CCc1c(C)sc2nc(SCC(=O)Nc3cc(C)on3)n(CCOC)c(=O)c12	3.6	0.8%	13.7	-1.4	-1.2%	-0.5	-5.3%
CCCn1c(C)cc(C)c(C#N)c1=O	2.3	0.6%	22.5	4.2	-21.1%	1.5	-2.6%
COc1ccc(N2CCN(C(=O)COC(=O)COc3cccc(C(F)(F)F)c3)CC2)cc1	·	-2.0%	-10.0	1.3	-3.3%	0.0	·
Cc1ccc(NC(=S)NC(C)CCc2ccccc2)cc1C (configuration not stated)	3.9	?	-15.5	82.6	?	3.6	20.2%
Cc1ccc(-c2cc(C(=O)Oc3ccc(C#N)cc3)no2)cc1	·	1.1%	·	-2.8	-1.6%	-0.4	·
Clc1cccc(-c2cc3nc4c(c(N5CCOCC5)n3n2)CCCC4)c1	0.5	-5.3%[38.3 µM]	-1.1	9.5	31.6µM*	1.8	?
C[C@H](CO)N1C[C@H](C)[C@H](CN(C)S(=O)(=O)c2ccccc2)OCc2ccccc2-c2c(n(C)c3ccccc23)C1=O	·	-0.6%	·	-8.2	1.0%	-0.2	·
COc1ccccc1OCc1ccc(C(=O)c2ccccc2)cc1	3.5	1.9%	?	29.8	·	0.8	-0.9%
COc1cc(OC)cc(C(=O)Nc2cccc(N3CCCC3)c2)c1	0.9	8.6%[38.3 µM]	-16.1	17.9	0.9%	2.0	-6.4%
CCOc1ccc(S(=O)(=O)N2CCCCC2)cc1NC(=O)Cc1cc(OC)c(OC)c(OC)c1	·	12.8%	·	-1.1	-2.1%	-0.9	·
COc1ccc(C(=O)NCC(=O)OCC(=O)c2ccc3c(c2)NC(=O)CO3)cc1OC	-6.9	-0.4%	5.5	15.4	·	3.3	9.0%
O=C(NCc1cccnc1)c1sc2ccccc2c1Cl	-0.2	11.1%[38.3 µM]	-9.3	28.2	-4.4%	-0.4	1.2%
CCC(C(=O)Nc1cccc(S(=O)(=O)N(C)c2ccccc2)c1)c1ccccc1 (configuration not stated)	·	-2.2%	1.3	-1.8	-1.1%	0.0	·
C=CCSc1nc(C)c(CC(=C)C)c(=O)[nH]1	1.0	-0.5%	-0.2	-13.0	-0.2%	-0.4	4.4%
Cn1c(SCc2ccc(F)cc2)nnc1-c1ccccn1	-0.5	-5.9%[38.3 µM]	19.7	1.5	1.0%	-0.6	6.2%
NC(=O)c1ccc(S(=O)(=O)N2CCSCC2)cc1	0.6	1.1%	-12.3	-9.1	·	0.2	-7.0%
O=C(N/N=C/c1ccc(F)c(F)c1)c1cccc(S(=O)(=O)N2CCCCC2)c1	·	3.8%	-19.6	-2.7	4.1%	0.5	·
Cc1nc(C)c(-c2ccc(SCC(=O)Nc3ccccc3)nn2)s1	·	2.4%	3.0	13.0	-0.4%	-1.0	16.4%
CCOC(=O)Cn1cc(/C=N/NC(=O)c2ccc(C#N)cc2F)c2ccccc21	-0.6	27.0%[38.3 µM]	12.2	-23.9	-0.9%	1.1	-2.6%
Cc1ccc(NC(=O)CCCn2c(=O)oc3ccccc32)c(O)c1	·	1.0%	5.4	8.1	-2.5%	1.2	15.0%
O=S(=O)(c1ccc(Cl)cc1)N1CCC(N2CCCCCC2)CC1	3.1	-0.8%	-1.5	14.9	-2.1%	0.0	-2.4%
COc1ccc(CN(C)C[C@@H]2OCCCC[C@H](C)Oc3ccc(NC(=O)Nc4ccc(F)cc4)cc3C(=O)N([C@H](C)CO)C[C@H]2C)cc1	·	-1.0%	·	4.5	-5.1%	-0.5	·
O=[N+]([O-])c1cccc(Nc2c([N+](=O)[O-])ccc3nonc23)c1	?	6.7%	7.9	-7.0	-0.7%	-1.3	2.5%
COc1cc(/C=C/c2nc(C#N)c(N3CCCCCC3)o2)cc(OC)c1OC	·	4.2%	·	1.6	4.2%	3.5	·
C/C(CC(=O)Nc1cccnc1)=N\NC(=O)C(=O)Nc1cccc(C)c1	3.1	1.4%	0.8	12.4	-1.9%	-0.1	6.8%
Cc1sc(NC(=O)C2CCCCC2C(=O)O)c(C(N)=O)c1-c1ccc(C(C)(C)C)cc1 (configuration not stated)	4.3	3.3%	-13.5	30.4	-5.2%	16.9	79.4µM*
CCc1ccc(CN(C(=O)COc2c(C)cccc2C)C2CCS(=O)(=O)C2)cc1 (configuration not stated)	2.9	0.5%	-16.7	-10.7	-1.8%	0.2	2.1%
O=C(COC(=O)C1CCN(c2ccc(C(F)(F)F)cn2)CC1)c1cccc(Br)c1	·	-1.2%	3.4	0.7	·	2.7	·

# Pulled by compound from above:
SMILES	Menin MLL FP FL	PINK1 modulator	TRPV1 potentiator	TRPML1 inh	ClpP mod	TRPML1 ag	Sfp inh
Cc1nc(C)c(-c2ccc(SCC(=O)Nc3ccccc3)nn2)s1	·	2.4%	3.0	13.0	-0.4%	-1.0	16.4%
O=C(COC(=O)C1CCN(c2ccc(C(F)(F)F)cn2)CC1)c1cccc(Br)c1	·	-1.2%	3.4	0.7	·	2.7	·

# The results go on:
SMILES	Menin MLL FP FL	PINK1 modulator	TRPV1 potentiator	TRPML1 inh	ClpP mod	TRPML1 ag	Sfp inh
O=C(NCCc1ccc(Cl)cc1)c1ccc2c(c1)N(Cc1cccc(Cl)c1)C(=O)c1ccccc1S2(=O)=O	·	1.1%	·	-18.0	-1.3%	2.0	·
COc1cc(C(=O)NCCC(=O)NCc2ccc3c(c2)OCO3)cc(OC)c1OC	1.3	-3.3%[38.3 µM]	-2.7	6.4	-2.4%	-0.5	18.8%
CCCCCN(C(=O)CCC(=O)OCC(=O)N(C)C1CCCCC1)c1c(N)n(CCCC)c(=O)[nH]c1=O	·	-1.5%	4.4	20.0	3.6%	0.6	·
CC(C)c1cccc(NC(=O)COC(=O)c2ccccc2OCc2cccc(Br)c2)c1	·	-0.4%	·	·	-13.3%	5.1	·
CCOc1ccc(NC(=O)CC2C(=O)N(c3cccc(C)c3)C(=O)N2Cc2cccnc2)cc1 (configuration not stated)	·	-0.1%	·	26.7	-0.9%	-0.7	·
COC(C(=O)Nc1ccnn1C1CCN(C(=O)c2ccc(C)cc2)CC1)c1ccccc1 (configuration not stated)	3.6	-0.6%	3.4	-5.3	0.1%	0.0	24.3%
CN(Cc1cnn(C)c1)C(=O)c1ccc(OC2CCN(CCc3ccccc3)CC2)cc1	0.4	2.5%	12.6	3.8	0.8%	0.6	15.4%
COc1ccccc1-n1c(C)c(C(=O)O)c2cc(OC)c3ccccc3c21	-2.6	0.5%	-13.1	2.2	4.2%	1.7	-4.3%
Cc1ccc(-c2nc(N=Nc3ccc(O)cc3)n[nH]2)cc1	9.1	0.1%	1.9	0.4	1.3%	-0.4	4.8%
COc1cc(/C=C/c2nc(-c3ccccc3O)n[nH]2)cc(OC)c1OC	1.5	-1.9%	-5.7	22.0	-38.8%	2.1	-1.2%
